MLL AF4-AF9 inh: inhibitors of AF4 peptide binding to AF9, primary screen, biochemical, AlphaScreen, biotin-AF4 peptide, FLAG-AF9, single point; Protein AF-9 (Homo sapiens), P42568; inhibition, % at 10 µM; hit rate 0.47% among 350,000;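 active = every replicate reaching a set inhibition limit, whatever the replicate mean, cut at about 25% in these data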;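 note: 0% = plate neutral control median and 100% = total signal loss; the record names both 10 and 1 µM as test concentration; the first replicate is given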
Target sequence (P42568 whole entry, looked up): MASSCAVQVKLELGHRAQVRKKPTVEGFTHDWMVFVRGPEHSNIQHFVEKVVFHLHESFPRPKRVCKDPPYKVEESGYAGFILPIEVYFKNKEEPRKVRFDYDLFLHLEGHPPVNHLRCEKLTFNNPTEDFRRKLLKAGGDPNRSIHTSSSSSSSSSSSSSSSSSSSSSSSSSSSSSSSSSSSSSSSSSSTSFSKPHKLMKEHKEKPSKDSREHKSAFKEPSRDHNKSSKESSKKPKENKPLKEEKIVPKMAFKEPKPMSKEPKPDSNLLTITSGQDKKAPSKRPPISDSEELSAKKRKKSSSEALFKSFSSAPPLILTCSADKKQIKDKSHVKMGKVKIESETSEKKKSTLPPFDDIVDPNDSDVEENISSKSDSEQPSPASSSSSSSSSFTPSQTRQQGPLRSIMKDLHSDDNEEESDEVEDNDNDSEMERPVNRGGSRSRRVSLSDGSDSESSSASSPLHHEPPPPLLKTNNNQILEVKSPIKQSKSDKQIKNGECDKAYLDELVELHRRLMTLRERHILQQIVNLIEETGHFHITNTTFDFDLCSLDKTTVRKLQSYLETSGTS
* hit, by the source's call; & = joins results of further samples.

MLL AF4-AF9 inh	SMILES
-0.5	O=C(Nc1cccc(F)c1)N1C[C@H]2[C@@H](c3ccccc31)[C@H](CO)N2C(=O)C1CCOCC1
-1.7	COc1ccc(NC(=O)Nc2ccc3c(c2)CC(=O)N([C@H](C)CO)C[C@H](C)[C@H](CN(C)C(=O)NC(C)C)O3)cc1
-0.7	CCCN(C)C[C@@H]1OCCCC[C@@H](C)Oc2ccc(NC(=O)C3CCCCC3)cc2C(=O)N([C@@H](C)CO)C[C@@H]1C
-0.8	Cc1cn([C@H]2C[C@H](O)[C@@H](CNS(=O)(=O)c3ccc(NS(=O)(=O)N(C)C)cc3)O2)c(=O)[nH]c1=O
-5.8	O=C(C[C@@H]1CC[C@H]2[C@@H](COC[C@@H](O)CN2CC2CCCCC2)O1)NCC1CC1
-3.2	COCC#Cc1cnc2c(c1)C(=O)N([C@@H](C)CO)C[C@@H](C)[C@@H](CN(C)C(=O)Nc1ccccc1OC)O2
-2.8	C[C@@H]1CN([C@H](C)CO)C(=O)c2cc(NC(=O)CCC(F)(F)F)ccc2O[C@@H]1CN(C)Cc1ccc(C(=O)O)cc1
-0.1	C[C@H]1CN([C@@H](C)CO)C(=O)c2cc(-c3ccccc3)cnc2O[C@@H]1CN(C)Cc1cccnc1
-1.5	COc1cccc(CNC(=O)C[C@@H]2C=C[C@H](NC(=O)C3CCOCC3)[C@H](CO)O2)c1
2.6	COc1ccc(NC(=O)O[C@H]2[C@H](OC(=O)Nc3ccc4c(c3)OCO4)[C@@H](OC(=O)Nc3ccc4c(c3)OCO4)[C@@H](OC)O[C@@H]2CO)cc1
-0.2	O=C(C[C@H]1C[C@H]2c3cc(NC(=O)CC4CC4)ccc3O[C@H]2[C@@H](CO)O1)NCCN1CCCCC1
5.6	CC(C)NC(=O)NCC[C@@H]1CC[C@@H](NS(=O)(=O)c2ccccc2)[C@@H](CO)O1
4.3	CO[C@@H]1CN(C)C(=O)c2ccc(NC(C)=O)cc2OC[C@H](C)N(CC2CCCCC2)C[C@H]1C
-1.0	CN1C(=O)c2cc(NC(=O)c3ccno3)ccc2OC[C@H]2O[C@@H](CC(=O)Nc3ccccc3)CC[C@@H]21
-0.9	CCCNC(=O)N1CC2(CCN(C(=O)CC3CC3)CC2)c2c(n(C)c3cc(OC)ccc23)[C@H]1CO
-0.7	CC=Cc1ccc2n(c1=O)C[C@H]1[C@H](CO)[C@@H](C(=O)NC3CCCC3)N(Cc3nccs3)[C@@H]21 (mixture of isomers)
-9.1	COc1ccc(NC(=O)N(C)C[C@@H]2OCCCC[C@@H](C)Oc3ccc(NS(=O)(=O)c4cccs4)cc3C(=O)N([C@H](C)CO)C[C@H]2C)cc1
0.3	CC(C)NC(=O)N(C)C[C@H]1Oc2ccc(NC(=O)Nc3ccc4c(c3)OCO4)cc2CC(=O)N([C@H](C)CO)C[C@H]1C
-1.2	CC(=O)N1[C@@H]2c3ccc(-c4ccccc4F)c(=O)n3C[C@@H]2[C@@H](CO)[C@@H]1C(=O)N(C)C
12.1	C[C@H]1CN([C@@H](C)CO)S(=O)(=O)c2ccc(C#CC3CCCC3)cc2O[C@H]1CN(C)Cc1cccnc1
1.2	COc1ccc(S(=O)(=O)N(C)C[C@H]2Oc3ccc(NS(=O)(=O)c4ccc(F)cc4)cc3C(=O)N([C@@H](C)CO)C[C@H]2C)cc1
-0.4	CCCNC(=O)C1(C)CCCN(Cc2cccc3ccccc23)C1 (stereo not given)
17.4	COc1cccc(S(=O)(=O)N2CC3(CCN(C)CC3)c3c(n(C)c4cc(OC)ccc34)[C@H]2CO)c1
-3.4	O=C(C[C@H]1C=C[C@H](NC(=O)c2ccncc2)[C@@H](CO)O1)Nc1ccccc1
0.5	O=C(N1CCOCC1)N1[C@H](COCc2ccccc2)C=CS1(=O)=O
0.8	O=C(C[C@@H]1C=C[C@H](NC(=O)Nc2ccc3c(c2)OCO3)[C@H](CO)O1)NCc1ccc(Cl)cc1
2.1	C[C@H](CO)N1C[C@H](C)[C@H](CN(C)Cc2ccccc2)OCCCC[C@H](C)Oc2ccc(NC(=O)CCCN(C)C)cc2C1=O
1.2	CC(C)CC#Cc1ccc([C@H]2[C@@H](CO)N3CCCCN(S(=O)(=O)c4ccc(F)cc4)C[C@@H]23)cc1
-1.7	COc1ccccc1NC(=O)N1C[C@@H](O)COC[C@@H]2O[C@@H](CC(=O)N3CCC(Cc4ccccc4)CC3)CC[C@H]21
0.2	CCOC(=O)[C@]12CCC=C1N(Cc1cccc3ccccc13)C(=O)[C@H](CC(=O)N1CCCCC1)C2
-4.5	Cc1cccc(C(O)c2ncc(-c3cccc(C(F)(F)F)c3)[nH]2)c1C (stereo not given)
-2.1	C[C@@H]1CN([C@@H](C)CO)C(=O)c2cc(C#CCN(C)C)cnc2O[C@@H]1CN(C)C
0.9	CC(C)CC#Cc1ccc2c(c1)O[C@@H](CN(C)C(=O)CC1CC1)[C@@H](C)CN([C@H](C)CO)S2(=O)=O
0.6	O=C(NCC[C@@H]1CC[C@@H](NC(=O)C2CCCC2)[C@H](CO)O1)c1cc(Cl)cc(Cl)c1
-1.7	Cc1cccc(NC(=O)Nc2ccc3c(c2)C(=O)N(C)[C@@H]2CC[C@H](CC(=O)NCc4ccccc4Cl)O[C@@H]2CO3)c1
-1.7	COc1ccc2c3c([nH]c2c1)[C@H](CO)N(Cc1ccccc1)CC31CCN(S(=O)(=O)c2ccc(C)cc2)CC1
1.7	C[C@@H]1CN([C@@H](C)CO)S(=O)(=O)c2ccc(C#CC3CC3)cc2O[C@H]1CN(C)C(=O)Cc1ccncc1
-3.2	O=C(Nc1ccccc1OC(=O)c1ccccc1)c1ccccc1
0.7	Cc1ccc(S(=O)(=O)Nc2ccc3c(c2)C(=O)N([C@H](C)CO)C[C@H](C)[C@@H](CN(C)S(=O)(=O)c2cn(C)cn2)OCCCC[C@@H](C)O3)cc1
-1.7	O=C([C@H]1[C@H](CO)[C@H]2Cn3c(ccc(-c4cncnc4)c3=O)[C@H]2N1CC1CC1)N1CCCCC1
2.4	CCOC(=O)C1(Cc2ccccc2C)CCCN(C(=O)c2ccc(C(C)=O)s2)C1 (stereo not given)
-1.3	C[C@H](CO)N1C[C@H](C)[C@H](CN(C)S(=O)(=O)c2ccccc2)Oc2ccc(NS(=O)(=O)c3ccccc3)cc2C1=O
-0.5	CCCC#Cc1ccc2c(c1)O[C@H](CN(C)C(=O)NCCC)[C@H](C)CN([C@@H](C)CO)S2(=O)=O
4.5	COc1ccc2c3c([nH]c2c1)[C@H](CO)N(C(=O)NC1CCCC1)CC31CN(C(=O)Nc2cccc(F)c2)C1
-1.0	CC(C)NC(=O)Nc1ccc2c(c1)C(=O)N([C@H](C)CO)C[C@H](C)[C@H](CN(C)Cc1ccccc1)O2
-1.5	O=C1CS(=O)(=O)C(c2ccccc2)N1c1ccc(Cl)cc1 (stereo not given)
1.8	CN(C)C(=O)c1ccc(-c2ccc([C@@H]3[C@@H](CO)N4C(=O)CN(C(=O)C5CCC5)C[C@@H]34)cc2)cc1
-1.0	CNC[C@H]1Oc2c(NC(=O)Nc3ccccc3)cccc2C(=O)N([C@H](C)CO)C[C@@H]1C
-2.9	CCC(=O)N[C@H]1C=C[C@H](CC(=O)NCC2CC2)O[C@H]1CO
0.1	C[C@@H]1CN([C@@H](C)CO)C(=O)Cc2cc(NC(=O)Cc3cn(C)c4ccccc34)ccc2O[C@H]1CN(C)Cc1ccc(C(=O)O)cc1
-0.2	COCC(=O)N(C)C[C@@H]1Oc2cc(-c3cncnc3)ccc2S(=O)(=O)N([C@H](C)CO)C[C@H]1C
-2.6	CC(=O)N(C)C[C@@H]1Oc2ncc(-c3ccc(F)cc3)cc2C(=O)N([C@H](C)CO)C[C@H]1C
-3.1	COc1ccc(S(=O)(=O)Nc2ccc3c(c2)C(=O)N([C@H](C)CO)C[C@@H](C)[C@H](CN(C)C(=O)c2ccncc2)OCCCC[C@@H](C)O3)cc1
1.7	C[C@H](CO)N1C[C@H](C)[C@H](CN(C)Cc2ccc3c(c2)OCO3)Oc2ccc(NS(=O)(=O)c3ccccc3)cc2C1=O
3.0	CNC(=O)C[C@H]1CC[C@@H]2[C@H](COc3ccc(NC(=O)Nc4cccc(C)c4)cc3C(=O)N2C)O1
-1.5	COCC(=O)Nc1ccc2c(c1)OC[C@@H](C)N(Cc1cccnc1)C[C@H](C)[C@@H](OC)CN(C)C2=O
0.8	C[C@@H]1CN([C@@H](C)CO)C(=O)c2cc(C3=CCCC3)cnc2O[C@H]1CN(C)C(=O)c1ccccc1
3.8	O=C(Cc1ccccn1)NCC[C@@H]1CC[C@@H](NC(=O)Nc2ccc(C(F)(F)F)cc2)[C@H](CO)O1
-0.3	C[C@H](CO)N1C[C@H](C)[C@H](CN(C)Cc2ccc(Oc3ccccc3)cc2)Oc2c(NS(C)(=O)=O)cccc2C1=O
-0.6	CO[C@@H]1CN(C)C(=O)c2cc(NC(=O)C3CCOCC3)ccc2OC[C@H](C)N(Cc2cccnc2)C[C@@H]1C

Given comma-delimited: six of the compounds above
Compound,MLL AF4-AF9 inh
O=C(Cc1ccccn1)NCC[C@@H]1CC[C@@H](NC(=O)Nc2ccc(C(F)(F)F)cc2)[C@H](CO)O1,3.8
C[C@H](CO)N1C[C@H](C)[C@H](CN(C)Cc2ccc3c(c2)OCO3)Oc2ccc(NS(=O)(=O)c3ccccc3)cc2C1=O,1.7
CN(C)C(=O)c1ccc(-c2ccc([C@@H]3[C@@H](CO)N4C(=O)CN(C(=O)C5CCC5)C[C@@H]34)cc2)cc1,1.8
CCOC(=O)C1(Cc2ccccc2C)CCCN(C(=O)c2ccc(C(C)=O)s2)C1 (stereo not given),2.4
COc1ccc2c3c([nH]c2c1)[C@H](CO)N(C(=O)NC1CCCC1)CC31CN(C(=O)Nc2cccc(F)c2)C1,4.5
CC(C)NC(=O)Nc1ccc2c(c1)C(=O)N([C@H](C)CO)C[C@H](C)[C@H](CN(C)Cc1ccccc1)O2,-1.0

Next entries follow.
MLL AF4-AF9 inh	SMILES
1.1	CCOC(=O)C1(C)CCCN(C(=O)c2snnc2C)C1 (stereo not given)
-3.3	O=C(C[C@@H]1CC[C@@H](NC(=O)C2CC2)[C@@H](CO)O1)Nc1nccs1
10.5	CC(C)CC(N)c1csc(Nc2ccc(C(=O)N(C)Cc3ccccc3)cn2)n1 (stereo not given)
0.5	COc1ccc(S(=O)(=O)Nc2ccc3c(c2)C(=O)N([C@@H](C)CO)C[C@@H](C)[C@@H](CN(C)S(=O)(=O)c2cccs2)OCCCC[C@H](C)O3)cc1
-6.3	C[C@H]1CCCCO[C@@H](CN(C)C(=O)c2ccncc2)[C@@H](C)CN([C@@H](C)CO)C(=O)c2cc(NC(=O)C3CCCCC3)ccc2O1
8.7	CCCNC(=O)N1CC2(CCN(Cc3cccc(OC)c3)CC2)c2c([nH]c3cc(OC)ccc23)[C@H]1CO
-1.5	C[C@@H]1CCCCO[C@H](CN(C)S(=O)(=O)c2ccc(Cl)cc2)[C@H](C)CN([C@H](C)CO)C(=O)c2cc(NS(=O)(=O)c3cn(C)cn3)ccc2O1
0.5	O=C(Nc1ccc(F)cc1)N1CC(=O)N2[C@H](CO)[C@@H](c3ccc(C#Cc4cccnc4)cc3)[C@H]2C1
-2.3	O=C(C[C@H]1C=C[C@@H](NC(=O)C2CCC2)[C@@H](CO)O1)NCC1CC1
-1.8	Cc1ccc(-c2ccc([C@H]3[C@H]4CN(C(=O)NC(C)C)CC(=O)N4[C@H]3CO)cc2)cc1
0.1	O=C(NCC1CCCCC1)[C@H]1[C@H](CO)[C@H]2Cn3c(ccc(-c4cncnc4)c3=O)[C@@H]1N2
-2.1&0.1	Cc1cc(C(=O)Nc2cccc3c2O[C@@H](CN(C)S(C)(=O)=O)[C@H](C)CN([C@@H](C)CO)C3=O)n(C)n1
0.5	COc1ccc(S(=O)(=O)Nc2ccc3c(c2)C(=O)N(C)C[C@H](OC)[C@@H](C)CN[C@H](C)CO3)cc1
-9.9	C[C@H](CO)N1C[C@H](C)[C@@H](CN(C)C(=O)Nc2ccc(C(F)(F)F)cc2)OCCCC[C@H](C)Oc2ccc(NC(=O)c3ccccc3)cc2C1=O
-4.7	C[C@@H]1CN([C@@H](C)CO)C(=O)Cc2cc(NC(=O)C3CC3)ccc2O[C@@H]1CN(C)C(=O)Nc1ccc2c(c1)OCO2
-5.2	O=C(Nc1ccc(C(F)(F)F)cc1)Nc1ccc2c(c1)[C@@H]1C[C@@H](CC(=O)N3CCc4ccccc4C3)O[C@H](CO)[C@@H]1O2
0.8	COc1ccc(N2C[C@H](C)[C@@H](CC(=O)Nc3ccccc3)C2=O)cc1
1.8	COc1ccc2c3c(n(C)c2c1)[C@H](CO)N(C(=O)c1ccccn1)CC31CN(C(=O)c2ccccn2)C1
1.2	CCCC#Cc1ccc2c(c1)O[C@@H](CN(C)C(=O)NC(C)C)[C@@H](C)CN([C@H](C)CO)S2(=O)=O
1.8	CO[C@@H]1CN(C)C(=O)c2cc(NS(=O)(=O)CC(F)(F)F)ccc2OC[C@@H](C)N(C(=O)c2ccc3c(c2)OCO3)C[C@H]1C
0.7	CO[C@H]1CN(C)C(=O)c2cc(NC(=O)Nc3cccc(F)c3)ccc2OC[C@H](C)N(C(=O)Nc2c(C)noc2C)C[C@@H]1C
-1.4	COc1ccc(C(=O)N2C[C@H]3[C@@H](c4ccccc42)[C@H](CO)N3C(=O)c2ccc(F)cc2)cc1
-2.2	C[C@@H]1CN([C@H](C)CO)C(=O)Cc2cc(NC(=O)Cn3cnnn3)ccc2O[C@@H]1CN(C)C(=O)Nc1ccccc1

Single values from the results shown.
Under MLL AF4-AF9 inh, C[C@@H]1CN([C@H](C)CO)C(=O)Cc2cc(NC(=O)Cn3cnnn3)ccc2O[C@@H]1CN(C)C(=O)Nc1ccccc1 reads -2.2
Under MLL AF4-AF9 inh, C[C@H](CO)N1C[C@H](C)[C@@H](CN(C)C(=O)Nc2ccc(C(F)(F)F)cc2)OCCCC[C@H](C)Oc2ccc(NC(=O)c3ccccc3)cc2C1=O reads -9.9
Under MLL AF4-AF9 inh, COc1ccc(N2C[C@H](C)[C@@H](CC(=O)Nc3ccccc3)C2=O)cc1 reads 0.8

From PubChem BioAssay

Not all compounds are listed (hit frequency here may not be typical).
